# VDR inhibitor: Inhibitors of the vitamin D receptor (VDR): qHTS; Potency, µM, inactives show max response, negative = inhibition, actives largely listed as inhibitors; VDR-SRC2-3 peptide fluorescence polarization, 2 h; Vitamin D3 receptor (Homo sapiens), P11473; 400,000 tested, 0.93% active; active = well fitted inhibition curve with a large enough effect; inconclusive = small, poorly fitted or top-dose-only effect, or another doubt; inactive = no such curve, though single readings can be large or run the other way; also: series mostly up to about 120 µM
# Target sequence (P11473 whole entry, looked up): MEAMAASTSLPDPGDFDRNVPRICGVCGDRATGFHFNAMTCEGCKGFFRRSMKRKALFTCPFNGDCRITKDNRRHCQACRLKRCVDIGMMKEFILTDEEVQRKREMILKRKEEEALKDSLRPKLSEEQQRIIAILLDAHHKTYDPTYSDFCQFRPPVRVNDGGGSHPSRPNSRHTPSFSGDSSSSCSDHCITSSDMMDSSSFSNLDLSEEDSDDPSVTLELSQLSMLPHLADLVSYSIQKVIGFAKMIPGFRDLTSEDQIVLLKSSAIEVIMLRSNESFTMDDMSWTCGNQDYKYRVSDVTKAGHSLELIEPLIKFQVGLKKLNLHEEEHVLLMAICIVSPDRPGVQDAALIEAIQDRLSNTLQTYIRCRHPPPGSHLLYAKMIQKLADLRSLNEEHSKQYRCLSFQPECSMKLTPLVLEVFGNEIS
#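 VDR–SRC2-3 interaction, FP format. Cmpds 23 nl via pintool, brief spin, 2 h ambient incubation.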
# An asterisk follows results filed as active; ? = inconclusive; & = joins results of further samples; [ ] = remark or other dose. % is scaled to controls: 0 for no effect and ±100 for the full control effect; potency is read from the fitted curve at half-maximal effect. The list is partial; count on the stated rates, not on these rows.
VDR inhibitor | SMILES
-10.9% | CCC1=C(OC(=O)N(CC)CC)N2C(=O)OC(=NCCOC)[C@]2(Cc2ccccc2)[C@H]2C1=CC[C@H]1C(=O)N(CC(=O)OC)C(=O)[C@H]12
-8.7% | CC(C)c1nc(CNC(=O)c2ccc(OC3CCN(Cc4ccccn4)CC3)cc2)cs1
5.5% | CC(C)C(=O)Nc1nc(-c2ccc(S(=O)(=O)N3CCOCC3)cc2)cs1
-10.4% | O=C(CN1CCN(C(=O)c2ccccc2)CC1)Nc1ccccc1
18.7% | COC(=O)c1ccc(COC(=O)c2ccc(S(=O)(=O)N3CCC(C)CC3)cc2)o1
-28.4% | O=C(NC(=S)Nn1cnnc1)c1cccc(Br)c1
-1.9% | COc1cc2c(cc1OC)CN(CC(=O)Nc1ccc(C)cc1)CC2
0.5% | CC(C)CNS(=O)(=O)c1cc(C(=O)N2CC(C)OC(C)C2)c(Cl)cc1Cl (stereo unspecified)
-2.0% | COc1cccc(CN(CC(=O)NCC2CCCO2)C(=O)CCC(=O)Nc2cc(C)on2)c1 (stereo unspecified)
8.6% | CCOC(=O)CSc1nc2cc3c(cc2c(=O)n1CCCCCC(=O)NCc1ccc(OC)cc1)OCO3
5.7% | CCOc1ccc(C(=O)CSc2nnc(N)s2)cc1
3.6% | Cc1oc(C(C)(C)C)cc1C(=O)Nc1ccc2c(c1)OCCO2
4.2% | Cc1ccc(CCCOC(=O)C[N+]2(C)CCCC2)cc1
15.7% | CSc1nc2sc3c(c2c(=O)n1C1CCCCC1)CCN(C)C3
1.4% | Cc1ccc(S(=O)(=O)C2(C(=O)O)CCCC2)cc1C
-3.9% | Cc1sc2nc(CN3CCOCC3)nc(NS(=O)(=O)c3ccccc3)c2c1C
-10.4% | COc1ccc(Cc2nnc(SCc3c(C)noc3C)n2C2CCCCC2)cc1OC
-1.3% | COC(=O)N/N=C\c1ccc(-c2cc(Cl)c(Cl)cc2Cl)o1
-9.8% | Cc1nn(C)cc1-c1n[nH]c(=S)n1-c1ccc(F)cc1
-4.6% | O=C(CN1CCN(S(=O)(=O)N2CCCCC2)CC1)Nc1ccc(Br)cc1
? | CCCCn1c(N)c(N(CCOC)C(=O)c2ccc(-c3ccc(Cl)cc3)o2)c(=O)[nH]c1=O
6.3% | CCOc1ccc(NC(=S)Nc2ccc(OC(F)(F)F)cc2)cc1
-12.7% | CC1(C)OC(=O)C(=CNCC(O)c2ccccc2)C(=O)O1 (stereo unspecified)
-5.2% | CCC(=O)N1CCc2cc(Br)cc(S(=O)(=O)N(C)c3ccc(OC)cc3)c21
-6.4% | CC(=O)Oc1c(Br)cc(N(C(C)=O)S(=O)(=O)c2ccccc2)c2ccccc12

# Taken from above.
# VDR inhibitor result of `Cc1nn(C)cc1-c1n[nH]c(=S)n1-c1ccc(F)cc1` : -9.8%
# VDR inhibitor result of `Cc1ccc(S(=O)(=O)C2(C(=O)O)CCCC2)cc1C` : 1.4%
# VDR inhibitor result of `COc1cc2c(cc1OC)CN(CC(=O)Nc1ccc(C)cc1)CC2` : -1.9%
# VDR inhibitor result of `COC(=O)c1ccc(COC(=O)c2ccc(S(=O)(=O)N3CCC(C)CC3)cc2)o1` : 18.7%
# VDR inhibitor result of `Cc1ccc(CCCOC(=O)C[N+]2(C)CCCC2)cc1` : 4.2%
# VDR inhibitor result of `CC(=O)Oc1c(Br)cc(N(C(C)=O)S(=O)(=O)c2ccccc2)c2ccccc12` : -6.4%

# The listing picks up, repeating the 2 entries before the break.
VDR inhibitor | SMILES
-5.2% | CCC(=O)N1CCc2cc(Br)cc(S(=O)(=O)N(C)c3ccc(OC)cc3)c21
-6.4% | CC(=O)Oc1c(Br)cc(N(C(C)=O)S(=O)(=O)c2ccccc2)c2ccccc12
-1.5% | O=C(Nc1c(C(=O)Nc2cccc(F)c2)oc2ccccc12)c1ccc2c(c1)OCO2
13.8% | CCCCS(=O)(=O)NC1=NCN(CC)CN1
-6.5% | CCOC(=O)C(C)Oc1cc(Cl)c(C=O)cc1OC (stereo unspecified)
-22.4%&-8.3% | COC(=O)c1cc(S(=O)(=O)NCC2CCN(Cc3cccc(F)c3)CC2)cn1C
? | CC(=O)Nc1sc2c(c1C(c1cccc(Cl)c1)N1CCN(CCO)CC1)CCCC2 (stereo unspecified)
3.6% | Cc1ccccc1C(=O)c1cccn1CC(=O)NCCCN1CCc2ccccc2C1
-23.3% | Cn1c(NC(=O)C[n+]2cc(-c3ccc(Cl)c(Cl)c3)n3c2CCC3)cc(=O)n(C)c1=O
7.3% | Cc1ccc(NC(=O)C2CC(=O)N(Cc3ccco3)C2)cc1 (stereo unspecified)
16.0% | O=C(CCc1ccccc1O)NC1CCCc2ccccc21 (stereo unspecified)
5.1% | NC(N)=N/N=C/c1ccc(OCc2ccc(Cl)cc2Cl)cc1
7.1% | CCc1ccc(N(C(=O)c2ccco2)C(C(=O)NC2CCCC2)c2cccnc2)cc1 (stereo unspecified)
-0.7% | Nc1cc(S(=O)(=O)N2CCOCC2)ccc1N1CCOCC1
0.2% | O=S1(=O)CCN2C(=N1)Sc1c2ccc2c1CCCC2
1.1% | CCCCC(CC)CNC(=O)c1[nH]c(C)c(C(C)=O)c1C (stereo unspecified)
10.2% | CC(Sc1nc2c([nH]c3ccccc32)c(=O)n1-c1ccccc1)c1ccccc1 (stereo unspecified)
-8.1% | Cc1ccc(-c2noc(C3CCCN(C(=O)c4cccc([N+](=O)[O-])c4)C3)n2)o1 (stereo unspecified)
? | CCOC(=O)C1=C(C)N(c2ccc(C)cc2)C(=O)/C1=C\c1ccc(O)c(OC)c1
3.7%&-3.6% | COc1ccc(OC)c(NC(=O)CCNS(=O)(=O)c2ccc3c(c2)oc(=O)n3C)c1
0.6% | O=C(COc1ccccc1)N=C1SC2CS(=O)(=O)CC2N1c1ccc(F)cc1F (stereo unspecified)
-8.1% | Cc1cc(C)c(-c2cc(NC(=O)COC(=O)c3ccc(NC(=O)CC#N)cc3)n(-c3ccccc3)n2)cc1C
10.6% | COc1cc(-c2nnc(SCCOc3ccccc3)o2)cc(OC)c1OC
-9.7% | N#Cc1ccc(N2CCCNCC2)nc1
-5.2% | Cc1onc(-c2c(Cl)cccc2Cl)c1C(=O)Nc1nc(C(C)(C)C)cs1
15.5% | Cc1cc(C)n2c(SCCC(C)C)nnc2n1
11.3% | CSc1nc2ccc(S(=O)(=O)Nc3c(C)n(C)n(-c4ccccc4)c3=O)cc2s1

# Next part, starting with the last three of the part before.
VDR inhibitor | SMILES
-5.2% | Cc1onc(-c2c(Cl)cccc2Cl)c1C(=O)Nc1nc(C(C)(C)C)cs1
15.5% | Cc1cc(C)n2c(SCCC(C)C)nnc2n1
11.3% | CSc1nc2ccc(S(=O)(=O)Nc3c(C)n(C)n(-c4ccccc4)c3=O)cc2s1
-4.9% | Cc1ccn2c(c1)nc(=O)c1cc(S(=O)(=O)N3CCOCC3)ccc12
-8.0% | COc1ccc(-n2c(=O)c3ccc(C(=O)NCc4ccc(C)cc4)cc3n(Cc3cccc(Cl)c3)c2=O)cc1
-5.5% | N=c1c2c(n(Cc3ccc(Cl)c(Cl)c3)c3c1CCC3)CCCC2
-17.0% | COc1cc(/C=C/C(=O)NC(C)(C)C)ccc1OCc1ccccc1
-11.0% | Cc1cccc(NC(=S)N2CCN(c3cc(C)ccc3C)CC2)c1
-9.5% | Cc1cc2c(NC(=O)CCCC(=O)O)cccc2nn1
-9.5% | CCC(=O)Nc1cccc(NC(=O)CSc2nnc(-c3ccc(NS(C)(=O)=O)cc3)n2CC)c1
-2.2% | CCOc1ccccc1C1c2[nH]c3ccccc3c2C[C@H]2C(=O)N(C3CC3)CC(=O)N12 (stereo partly specified)
3.1% | COc1cc(OC)cc(C(=O)NCCc2cnc[nH]2)c1
8.6% | Fc1cccc(CSc2ccc3nnc(-c4ccccn4)n3n2)c1
-15.0% | O=C(Nc1ccc(Br)cn1)c1ccc([N+](=O)[O-])o1
-4.5% | COc1cc(C(=O)N2CCN(C(=O)Cc3ccccc3)CC2)cc(OC)c1OC
4.4% | CN(CC(=O)Nc1ccccc1Br)C(=O)c1n[nH]c2ccccc12
-16.8% | CCCNc1nc(-c2ccccc2)c(C(=O)OCC)cc1C#N
6.7% | Cc1ccc(NC(=O)CCNS(=O)(=O)c2ccc3[nH]c(=O)oc3c2)c(C)c1
9.8% | COc1cccc(CNC(=O)CN(C)S(=O)(=O)c2ccc3c(c2)n(C)c(=O)c(=O)n3C)c1
89.1µM* | Cc1ccc(/C=C2/NC(=O)N(Cc3ccccc3)C2=O)o1
-10.1% | O=C(CS(=O)(=O)c1ccccc1)N1CCc2ccccc21
-0.1% | CCN(CC)c1ccc(C(=O)NNC(=O)CN2C(=O)NC3(CCCCC3)C2=O)cc1
? | CC(C)CC1=C/C(=C/c2ccc(-c3ccccc3)o2)C(=O)O1
4.5% | COc1ccc(NC(=S)N2CCNC(=O)C2CC(=O)Nc2cccc(Cl)c2C)cc1 (stereo unspecified)
1.9% | COc1cccc(OC)c1C(=O)NC(=S)NCc1ccccc1
8.7% | COc1cc(-c2cc3n(C)c(C)c(CCC(=O)NCc4ccccc4)c(=O)n3n2)cc(OC)c1OC
-3.2% | C/C(=N\O)C(C)(C)Nc1cccc(F)c1
2.3% | Cc1cccc([N+](=O)[O-])c1NC(=O)COC(=O)C1CCCO1 (stereo unspecified)
43.1%[activator] | COc1ccc(NC(=O)Cc2nnc(SCC(=O)Nc3nccs3)n2C)cc1
-6.0% | COc1ccc(C(CNC(=O)Nc2ccccc2)N2CCN(C)CC2)cc1 (stereo unspecified)
4.1% | CCC1CCCCN1CCNS(=O)(=O)c1ccc2c(c1)oc(=O)n2C (stereo unspecified)
-17.6% | COc1ccc(NS(=O)(=O)c2cccc(C(=O)OCC(=O)N3CCN(c4ccc(OC)cc4)CC3)c2)cc1
-13.4% | O=[N+]([O-])c1ccc(OS(=O)(=O)Cc2ccccc2)cc1
-24.9% | CC(C)(C)NC(=O)C(c1c[nH]c2ccccc12)N(C(=O)Cn1nnc(-c2ccc(Cl)cc2)n1)c1ccccc1F (stereo unspecified)
-10.5% | CCOC(=O)C(C)Sc1ccc2nnc(-c3ccc(F)cc3)n2n1 (stereo unspecified)
-9.7%&8.7% | CCc1nnc(NC(=O)c2ccc(NS(=O)(=O)c3ccccc3)cc2)s1
-1.9%&-9.9% | COc1ccc(S(=O)(=O)Cc2ccc(C(=O)N3CCN(c4cc(C)ccc4C)CC3)o2)cc1
-6.9% | COC(=O)C(C(=O)OC)N1C(=O)CCC1=O
-23.3% | Cc1ccc2nsnc2c1NC(=O)CCl
-13.3% | Cn1cccc1/C=N/N1CCN(Cc2ccc(Cl)cc2)CC1
-1.4% | CCCCCCCCCCCCCC(=O)NO
3.4% | COC(=O)c1cc(S(=O)(=O)Nc2cccc(S(N)(=O)=O)c2)oc1C
? | CCC(C)NS(=O)(=O)c1ccc(S(=O)(=O)N2CC=C(c3ccc(F)cc3)CC2)cc1 (stereo unspecified)
16.5% | COc1cccc(N2CCN(c3c4c(nc5ncnn35)CCC4)CC2)c1
9.8% | Fc1ccc2[nH]c(-c3cccs3)cc2c1
31.8%[activator] | COc1ccc(/C=N/NC(=O)CN2CCCCCCC2)c(C)c1C
10.1% | O=C(NCCc1ccccc1)C(c1ccccc1F)N(C(=O)c1csnn1)C1CC1 (stereo unspecified)
-0.8% | C#CCN(Cc1ccco1)C(=O)c1cc(COc2ccc(F)cc2Cl)on1
-11.0% | COc1ccc(N(CC(=O)N2CCN(Cc3ccccc3)CC2)S(=O)(=O)c2ccccc2)cc1
-6.2% | O=C(N/N=C/c1ccc2nccnc2c1)c1ccncc1
? | c1csc(CNc2ccnc(-c3ccc4c(c3)OCO4)n2)c1
-12.0% | Cc1ccc(NC(=O)CSc2nnc(C)s2)c(C)c1
-12.6% | O=[N+]([O-])C1=CC=C2C(=NC3(CCCCC3)N2O)C1=NCCc1ccccc1

# (next part)
VDR inhibitor | SMILES
-3.5% | COC(=O)c1ccc(CO/N=C(\NC(C)=O)c2nonc2NC(C)=O)cc1
-17.6% | CC1CC(C)(C)NC(=S)N1CCC(=O)Nc1ccc2c(c1)OCCO2 (stereo unspecified)
9.3% | CCc1ccccc1NC(=O)Cn1c(=O)n(CCc2ccccc2)c(=O)c2ccccc21
-14.4%&-9.5% | CCC[C@@H]1CCCO[C@@](C(=O)NCc2cc(C)n(C)n2)(C(F)(F)F)C1
1.7% | Cc1ccc2c(c1)N(C(=O)CCC(=O)NCc1cccnc1)CC(C)O2 (stereo unspecified)
11.8% | CC(C)=CCN1CCN(Cc2cccc3nccnc23)CC1CCO (stereo unspecified)
-13.2% | S=C(NCC1CCCCC1)Nc1ccc(Oc2ccccc2)cc1
-6.7% | Cc1c(CCC(=O)NCCCn2ccnc2)c(=O)oc2cc3oc4c(c3cc12)CCCC4
-28.4% | C/C(=N\Nc1ccc(Cl)cc1)c1c(O)cc(C)oc1=O
-1.9% | CC(=O)N1CCN(S(=O)(=O)c2ccc(C)c([N+](=O)[O-])c2)C1C(C)C (stereo unspecified)
-6.9% | O=C(NC1C2CCCC1CN(C1CC1)C2)c1ccc(Cl)cc1 (stereo unspecified)
16.8% | CCCCCCCCCCCCCCC(C(=O)OC)C(O)(CC(=O)OC)C(=O)OC (stereo unspecified)
0.6% | COc1ccc(/C=C2\N=C(c3ccccc3Cl)NC2=O)cc1
-8.8% | CC(C)CNC(=O)C1(N2C(=O)c3ccccc3C2=O)CCCC1
-8.1%&4.1% | CCCCC1(COC(=O)CCC(=O)O)C(=O)N(c2ccccc2)N(c2ccccc2)C1=O
? | CCn1nc(C)c(CNC(=O)Nc2ccccc2C(=O)OC)c1C
-19.7% | COC(=O)c1cccc(C(=O)N2CCC(CO)(Cc3ccccc3Cl)CC2)c1
-3.3% | Cc1c(NC(=O)C(C)Oc2ccc(Br)cc2Cl)c(=O)n(-c2ccccc2)n1C (stereo unspecified)
1.8% | CC1CCc2c(sc3nc(C4CC4)nc(N4CCN(C(=O)c5ccco5)CC4)c23)C1 (stereo unspecified)
-6.4% | CC(C)(C)CC(C)(C)c1ccc(OCCO)cc1
5.2% | O=C(Cn1c(=O)n(Cc2ccccc2)c(=O)c2ccccc21)NCc1ccco1
-13.6% | CCNC(=O)NC(=O)C(C)OC(=O)c1cc(S(=O)(=O)N2CCCCCC2)ccc1OC (stereo unspecified)

# Compound activity as filed in PubChem BioAssay.
